# Compound activity: PubChem, National Center for Advancing Translational Sciences (NCATS)
# Cruzain Triton: inhibitors of Trypanosoma cruzi cruzain with detergent; 0.43% of 200,000 active; Potency, µM, for inactives: max response, negative = inhibition, most hits filed as inhibitors; purified cruzain, Z-FR-AMC fluorescence, 0.01% Triton; active = well fitted curve in the direction sought with a large enough effect; inconclusive = small, poorly fitted or top-dose-only effect, or another doubt; inactive = no such curve, though single readings can be large; an effect the other way counts as inactive or inconclusive;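 also: plate controls were neutral wells for no effect and buffer without enzyme for full effect; nearly all actives have a fitted effect of over 40% in size; top concentration of the series not given in the record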
# Target sequence (P25779 123-467 limits assumed): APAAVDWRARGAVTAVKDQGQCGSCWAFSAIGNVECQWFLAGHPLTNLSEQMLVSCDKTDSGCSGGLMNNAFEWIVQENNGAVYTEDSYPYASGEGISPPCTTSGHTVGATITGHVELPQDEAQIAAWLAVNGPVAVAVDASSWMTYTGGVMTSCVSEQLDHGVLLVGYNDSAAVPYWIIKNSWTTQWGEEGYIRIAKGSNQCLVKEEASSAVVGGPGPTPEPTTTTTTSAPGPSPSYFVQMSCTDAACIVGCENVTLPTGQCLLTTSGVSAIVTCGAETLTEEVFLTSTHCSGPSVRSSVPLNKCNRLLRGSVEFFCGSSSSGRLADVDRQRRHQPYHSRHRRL
#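 15 min RT preincubation of 1.5 nM cruzain with compound, then 2 uM Z-FR-AMC added; kinetic AMC fluorescence, 60 s delta. Triton X-100 0.01%, pH 5.5.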
# Cruzain noTriton: cruzain (T. cruzi) inhibition without detergent | P25779 | purified cruzain, Z-FR-AMC fluorescence, no detergent | Potency, µM, inactives show max response, negative = inhibition, usual class: inhibitors | 2.3% of 200,000 active | AID 1476; active = well fitted curve in the direction sought with a large enough effect; inconclusive = small, poorly fitted or top-dose-only effect, or another doubt; inactive = no such curve, though single readings can be large; an effect the other way counts as inactive or inconclusive;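 also: plate controls were enzyme without inhibitor for no effect and buffer without enzyme for full effect; nearly all actives have a fitted effect of over 40% in size; top concentration of the series not given in the record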
#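 Purified cruzain at 1.5 nM, pre-incubated 15 min with compound at room temperature in 100 mM sodium acetate pH 5.5, 5 mM DTT, 0.00005% Triton X-100. Reaction started with 2 uM Z-FR-AMC; AMC fluorescence increase over 60 s gives rate.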
# 2A StopGo: FMDV 2A StopGo reporter, luciferase signal; Potency, µM (doses to about 57.9 µM), without a hit: at the top dose signal change, negative = less light; human cells with a luciferase reporter of 2A StopGo recoding; control for the full effect not named in the record; AID 1159524; 1.2% of 410,000 active; active = well fitted falling curve with a large enough effect; inconclusive = small, poorly fitted or top-dose-only effect; inactive = no such curve, though single readings can be large or run the other way; tested in HEK293T cells; also: % is scaled to controls: 0 for no effect and ±100 for the full control effect; nearly all actives have a fitted effect of over 45% in size; luciferase light after 4 h
# NS1 function inh: influenza NS1 inhibition; S. cerevisiae slowed by influenza A NS1, growth recovery by OD600; Potency, µM (series often up to 46.1 µM), without a hit: at the top dose activity, positive = more growth; 0.4% of 270,000 active; AID 2326; also: actives are rising curves; nearly all actives have a fitted effect of over 50% in size
#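 Growth recovery, yeast-based: influenza A NS1 expressed in S. cerevisiae causes slow growth, and suppressors are detected by OD600. The parent strain without NS1 is used as positive control.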
# SARS PLP yeast: inhibitors of SARS-CoV papain-like protease in yeast. S. cerevisiae expressing SARS-CoV PLpro, growth rescue; control for the full effect not named in the record. Potency, µM (highest dose often 32.9 µM), for the others: at the top dose activity, positive = growth rescue. 0.19% of 330,000 active; also: 0% is about no effect; nearly all actives have a fitted effect of over 55% in size; growth read by luminescence after 48 h
# RE007 growth inh: less growth of the S. pombe RE007 Vpr strain; S. pombe RE007 Vpr strain, BacTiter-Glo ATP luminescence, 24 h; control for the full effect not named in the record; Potency, µM (titrated, usually from 92.2 µM), without a hit: at the highest dose activity change, negative = less growth; 0.21% of 360,000 active; AID 651644; active = well fitted falling curve with a large enough effect; inconclusive = small, poorly fitted or top-dose-only effect; inactive = no such curve, though single readings can be large or run the other way;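 also: % is scaled to controls: 0 for no effect and ±100 for the full control effect; nearly all actives have a fitted effect of over 50% in size; the assay follows cell death caused by Vpr and the record does not say whether a fall means rescue or toxicity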
#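 Fission yeast strain RE007, carrying one chromosomally integrated HIV-1 vpr copy, was seeded at OD 0.01 in PMG+AL medium with 23 nL pinned compound. After 24 h at 30 °C and 99% humidity, viability was read by BacTiter-Glo luminescence.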
# Marburg entry inh: blocks Marburg virus binding to or entry into cells | Potency, µM (top dose mostly 37.8 µM), for the others: top-dose activity change, negative = inhibition, most hits filed as inhibitors | 1.8% of 300,000 active | Marburg virus pseudotyped entry inhibition, cell reporter; control for the full effect not named in the record; about a third of the inactives were read at about 46 µM | AID 540276; active = well fitted inhibition curve with a large enough effect; inconclusive = small, poorly fitted or top-dose-only effect, or effect the other way; inactive = flat fitted curve, though single readings scatter; tested in HEK293 cells; about a fifth of its hits are not listed in these tables; also: % is scaled to controls: 0 for no effect and ±100 for the full control effect; luciferase read-out
# LASV entry inh: inhibitors of Lassa virus binding or cell entry; Lassa virus pseudotype entry inhibition, cell reporter; control for the full effect not named in the record; Potency, µM (top dose mostly 37.9 µM), for the others: top-dose activity change, negative = inhibition, usual class: inhibitors; 1.2% of 300,000 active; AID 540256; active means well fitted inhibition curve with a large enough effect; inconclusive means small, poorly fitted or top-dose-only effect, or effect the other way; inactive means flat fitted curve, though single readings scatter; tested in HEK293 cells; also: % is scaled to controls: 0 for no effect and ±100 for the full control effect; nearly all actives have a fitted effect of over 50% in size; luciferase read-out
# The depositor's hits bear a star; ? = inconclusive; · = no result given; & = joins results of further samples; [ ] = dose if it differs, or a comment. Unless noted, calls follow the shape of the dose curve; as a rule, active means well fitted rising curve with a large enough effect; inconclusive means small, poorly fitted or top-dose-only effect; inactive means no such curve, though single readings can be large or run the other way. Potency is read from the fitted curve at half-maximal effect.
SMILES,Cruzain Triton,Cruzain noTriton,2A StopGo,NS1 function inh,SARS PLP yeast,RE007 growth inh,Marburg entry inh,LASV entry inh
C=CCSc1nnc(N2C(=O)C(O)=C(C(=O)c3ccco3)C2c2ccc(F)cc2)s1 (stereo not given),·,·,-10%,15%,-1%,-18%,·,·
Cc1cc(Cl)c(OCCCNCc2ccccc2)c(Br)c1,-0.1%,-1%,-15%,-63%,3%,1%,?,-14%
Cc1ccccc1CSc1nc2c(sc3ccccc32)c(=O)n1CCCC(=O)NCCCOC(C)C,1.6%,9%,-26%,·,·,·,-8%[46.1 µM],-3%[46.1 µM]
Cc1ccccc1NC1=NS(=O)(=O)c2ccccc21,5.5%,3%,·,4%,7%,0%,5%,?
O=C1NN(c2ccccc2)C(=O)/C1=C\c1ccc(-c2cc([N+](=O)[O-])ccc2O)o1,·,·,-10%,4%,1%,-9%,7%[46.1 µM],-7%[46.1 µM]
C=CCn1c(SCC(=O)Nc2ccc(F)cc2)nc2cc(C(=O)O)ccc2c1=O,·,·,0%,0%,3%,-8%,13%[46.1 µM],11%[46.1 µM]
COc1cc(CC(=O)NCC2COc3ccccc3O2)cc(OC)c1OC (stereo not given),·,·,-5%,·,1%,9%,19%[46.1 µM],-13%
O=c1oc2c(CN3CCOCC3)c(O)ccc2c2c1CCCC2,28µM*,?,-17%,-6%,0%,-10%,-6%,6%
COc1ccc(CN2CCN(Cc3cn(C)nc3-c3ccccc3)CC2CCO)c(C)c1C (stereo not given),·,·,-24%,-4%,0%,-7%,?,2%
CCOc1ccc(Br)cc1S(=O)(=O)N1CCCN(C)CC1,·,·,1%,0%,5%,3%,-15%,-2%
Cc1ccc(NC(CC(=O)c2ccccc2)c2ccc(F)cc2)cc1 (stereo not given),-9.3%,8%,17%,-10%,4%,-22%,-6%,17%
CCOC(=O)c1ccc(NC2=CC(=O)CC(c3ccco3)C2)cc1 (stereo not given),·,·,15%,1%,0%,13%,?,1%
CCC(Sc1nnc(C)n2c1cc1occc12)C(=O)Nc1ccccc1OC (stereo not given),-0.1%,-4%,0%,·,·,·,·,9%[46.1 µM]
CC1CC(=O)N(c2ccc(NCCc3ccccc3)c([N+](=O)[O-])c2)C1=O (stereo not given),·,·,8%,·,2%,-7%,15%[46.1 µM],0%
Cc1cccc(C(=O)Nc2nnc(SCC(=O)Nc3ccc4c(c3)oc3ccccc34)s2)c1,-3.2%,20µM*,10%,2%,14%,-14%,?,-5%
Cc1ccc(S(=O)(=O)/N=C(\N)Nc2nc(C)c3cc(C)c(C)cc3n2)cc1,0.9%,?,0%,-9%,1%,-13%,?,?
CCOC(=O)C1CCN(CCC(=O)Nc2ccc(OC)cc2)CC1,0.5%,1%,2%,·,·,·,·,-8%[46.1 µM]
C[C@]12CCC3C(CC[C@H]4C[C@H](O)CC[C@]34C)C1C[C@H](O)[C@H]2O (stereo not given in full),·,·,-19%,·,·,9%,16%[46.1 µM],3%[46.1 µM]
COc1ccc(C(C)=O)cc1Cc1c(O)[nH]c(=S)[nH]c1=O,·,·,6%,4%,0%,0%,·,·
Cc1c(Cl)cccc1NC(=S)NCc1ccco1,·,·,29%,0%,12%,-6%,·,·
COc1cc(CNC2CCC(C)C2)cc(OC)c1 (stereo not given),7.1%,-2%,8%,1%[9.22 µM],1%,11%,-12%,0%
CCOc1cc(C=C2C(=O)NC(=S)NC2=O)ccc1O,·,·,?,·,·,-3%,-11%[46.1 µM],3%[46.1 µM]
Cc1nc2ccccc2c(C)c1CC(=O)N(CC(C)C)c1c(N)n(Cc2ccccc2)c(=O)[nH]c1=O,·,·,-3%,·,4%,-18%,-8%,-1%
CC1CN(C)C(c2ccccc2)C(C)C12NC(=O)NC2=O (stereo not given),9.4%,-3%,-24%,?,19%,-4%,0%,-1%
CCN(CC)C(=O)CSc1nnc(-c2ccncc2)n1N,5.2%,-8%,13%,4%,0%,8%,22%,-2%
# The listing continues:
SMILES,Cruzain Triton,Cruzain noTriton,2A StopGo,NS1 function inh,SARS PLP yeast,RE007 growth inh,Marburg entry inh,LASV entry inh
N=c1n(Cc2ccccc2Cl)c2ccccc2n1CC(O)c1ccco1 (stereo not given),·,·,-11%,-2%,1%,1%,16%,?
O=C(CN1C(=O)c2ccccc2C1=O)Nc1cccc([N+](=O)[O-])c1,-3.0%,-7%,-21%,2%,-3%,6%,9%[46.1 µM],-2%
O=C(NCCc1ccccc1)C(=O)c1cn(CC(=O)N2CCCC2)c2ccccc12,·,·,-4%,4%,-6%,-6%,-4%,?
N#CC1=C(N)Oc2c(ccc3cccnc23)C1c1ccncc1 (stereo not given),·,·,-5%,1%,5%,1%,?,-9%
COC(=O)Cc1ccc(NC(=S)N2CCN(C(=O)C3CCCO3)CC2)cc1 (stereo not given),·,·,-23%,14%,19%,12%,-2%,15%
Cc1ccc(S(=O)(=O)N2CCN(CCNC(=O)C(=O)NCc3ccccc3)CC2)cc1,·,·,21%,-1%,0%,7%,4%[46.1 µM],0%[46.1 µM]
O=C(NC(O)C(=O)c1ccc(F)cc1)c1ccc(F)cc1 (stereo not given),·,·,24%,-2%,-3%,5%,·,·
O=C(O)C1C2CCC(C2)C1C(=O)Nc1nc2ccccc2s1 (stereo not given),-3.7%,-13%,29%,2%,0%,-1%,23%,-3%
Cc1oc(C(N)=O)cc1COc1ccc(C(N)=O)cc1,·,·,11%,3%,1%,10%,13%[46.1 µM],5%
CC(C)(C)[C@]1(O)C[C@@H]2OC(=O)C[C@@]23C(=O)O[C@@H]2OC(=O)[C@H](O)[C@]213,10%&3.5%,-1%&14%,-15%,-2%,8%,-2%,9%,-3%
Cc1cc2c(c(SCC(N)=O)n1)C(=O)OC2,·,·,-20%,·,-3%,0%,-8%,9%
Cc1nnc(SCC(=O)NC2CCCC2)s1,-1.4%,-2%,12%,3%,10%,5%,-3%,-10%
O=C(Cc1cccs1)Nc1ccccn1,-3.7%,-18%,26%,?,-1%,-13%,-22%,?
Cc1cccc(NC(=O)Cn2ncc3c4ccccc4n(Cc4ccccc4)c3c2=O)c1C,-2.1%,-7%,5%,·,·,·,10%[46.1 µM],1%[46.1 µM]
CC1(C)Cc2c(c(N3CCOCC3)nc3snc(Br)c23)CO1,-2.9%,1%,11%,14%,0%,4%,-12%,-17%
O=C(CCS(=O)(=O)c1ccccc1)NC12CC3CC(CC(C3)C1)C2,1.1%,2%,47%[activator],-53%,-5%,3%,?,?
Cc1ccnc(NS(=O)(=O)c2ccc(NC(=O)c3nc(SC(C)C)ncc3Cl)cc2)n1,-7.9%,15%,25%,·,·,·,-1%[46.1 µM],?
O=C(Cn1c(=O)oc2ccccc21)Nc1nc(-c2ccccc2)cs1,-7.9%,-23%,·,3%,-3%,8%,-9%,-13%
COc1ccccc1CNS(=O)(=O)c1csc(C(N)=O)c1,·,·,-5%,3%,0%,6%,5%[46.1 µM],-2%[46.1 µM]
COC(=O)Cc1c(C)c2ccc(OCC(=O)NCc3ccc4c(c3)OCO4)cc2oc1=O,-1.5%,17%,0%,21%,17%,21%,-4%&-4%,?
COc1ccc(Br)cc1/C=N/N1CCN(Cc2ccccc2)CC1,·,·,-22%,6%,-1%,-19%,-9%[46.1 µM],-2%[46.1 µM]
Cc1ccc(S(=O)(=O)Nc2cc3c(cc2C)n(C)c(=O)c(=O)n3C)c(C)c1,-2.7%,0%,16%,·,·,·,·,12%[46.1 µM]
O=C(NCc1ccc(F)cc1)C(C(=O)NCc1ccc(F)cc1)c1ncc(C(F)(F)F)cc1Cl,·,·,14%,1%,12%,-6%,?,5%[46.1 µM]
O=C(c1cc([N+](=O)[O-])ccc1Cl)N1CCN(Cc2ccccc2)CC1,·,·,-17%,-10%,0%,-3%,·,·
COc1ccc(CNC(=O)C2CCN(c3nn4c(=O)cc(C)nc4s3)CC2)cc1,·,·,4%,7%,?,15%,·,·
CC1=C(OC(=O)c2ccc(Br)cc2)C(C)(C)C(c2ccccc2)OC1=O (stereo not given),0.2%,-17%,0%,3%,13%,41%,14%,6%
